# Screens as filed in PubChem.
# Rango-impB inh: qHTS Assay for Inhibitors of Rango (Ran-regulated importin-beta cargo) - Importin beta complex formation | 340,000 compounds, 0.031% hits | AID 540263, 2011 | Rango CFP/YFP FRET sensor + importin beta, 45 min | Potency, µM (titrated, usually from 92.2 µM), for the others: top-dose inhibition of complex formation; active = rising FRET ratio curve, often small or poorly fitted; inconclusive = mostly compound fluorescence or quenching in the first reads; inactive = flat curves in all reads;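 note: potency is the fitted concentration of half-maximal effect; 0% = DMSO wells and 100% = buffer wells lacking importin beta; nearly all actives have a fitted effect of over 15% in size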
# Target sequence (Q14974 whole entry, looked up): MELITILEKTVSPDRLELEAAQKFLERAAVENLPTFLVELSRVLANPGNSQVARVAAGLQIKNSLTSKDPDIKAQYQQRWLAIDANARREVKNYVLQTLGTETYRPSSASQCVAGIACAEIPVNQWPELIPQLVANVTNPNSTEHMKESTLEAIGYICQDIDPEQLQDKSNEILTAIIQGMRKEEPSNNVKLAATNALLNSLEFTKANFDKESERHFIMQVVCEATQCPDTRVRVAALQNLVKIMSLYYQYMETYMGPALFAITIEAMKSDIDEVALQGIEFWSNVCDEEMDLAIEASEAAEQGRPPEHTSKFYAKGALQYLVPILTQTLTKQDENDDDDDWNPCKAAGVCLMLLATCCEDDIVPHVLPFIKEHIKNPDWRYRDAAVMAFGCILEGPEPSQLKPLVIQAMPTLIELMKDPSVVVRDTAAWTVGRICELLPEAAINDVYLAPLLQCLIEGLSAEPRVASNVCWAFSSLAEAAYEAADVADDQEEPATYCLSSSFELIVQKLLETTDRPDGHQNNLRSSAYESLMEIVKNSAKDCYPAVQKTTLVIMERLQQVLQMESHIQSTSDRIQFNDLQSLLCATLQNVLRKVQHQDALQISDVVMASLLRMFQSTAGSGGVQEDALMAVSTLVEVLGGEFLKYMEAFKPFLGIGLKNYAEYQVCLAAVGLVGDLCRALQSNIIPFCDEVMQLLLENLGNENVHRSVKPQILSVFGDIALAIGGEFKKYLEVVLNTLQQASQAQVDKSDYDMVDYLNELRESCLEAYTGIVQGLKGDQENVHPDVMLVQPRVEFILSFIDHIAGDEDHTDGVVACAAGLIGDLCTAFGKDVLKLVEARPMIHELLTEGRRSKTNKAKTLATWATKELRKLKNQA
#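 Inhibition scored from the CFP 486 nm/YFP 530 nm FRET ratio 45 min after adding 0.125 microM importin beta to 50 nM Rango biosensor preincubated 5 min with compound (room temperature, PBS with DTT, Tween-20, BSA). No-importin wells as positive control.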
# Rango release inh: qHTS Assay for Inhibitors of RanGTP induced Rango (Ran-regulated importin-beta cargo) - Importin beta complex dissociation. AID 540253, 2011. 340,000 compounds, 0.071% hits. Snurportin-1 (Homo sapiens) + GTP-binding nuclear protein Ran (Homo sapiens) + Importin …. Potency, µM (series often up to 46.1 µM), for the others: at the highest dose activity change, negative = inhibition. Biochemical FRET Rango-importin beta, RanGTP-induced dissociation; active means falling FRET ratio curve, often poorly fitted, with flat reads before Ran was added; inconclusive means other falling curves, or compound fluorescence or quenching; inactive means flat or rising ratio curve;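 note: potency is the fitted concentration of half-maximal effect; % of control where 0% means no effect; nearly all actives have a fitted effect of over 45% in size; -100% = wells without RanGTP and RCC1; the record marks most hits as doubtful in a second field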
#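 Compounds sat 5 min at room temperature with 0.1 uM Rango biosensor plus 0.25 uM importin beta, then FRET pre-read. RanGTP-RCC1 (0.6 uM Ran, 2mM GTP, 0.2 uM RCC1) added for 45 min, and the CFP/YFP post-read measured blocked complex dissociation.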
# GLA inh pH 4.5: qHTS Assay for Inhibitors of Human alpha-Galactosidase at pH 4.5; AID 1467, 2008; 230,000 tested, under 10 active; Alpha-galactosidase A (Homo sapiens), P06280; purified enzyme, 4-MU-alpha-Gal fluorescence, pH 4.5; activity change, negative = inhibition, % at 105 µM; inconclusive = small, poorly fitted or top-dose-only inhibition, or a rising curve; inactive = flat fitted curve, though single readings scatter; no compound was filed as active;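 note: 0% = full activity with enzyme and -100% = basal without enzyme; dose as in the result columns while the protocol names 77 µM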
# miR-21 reporter: qHTS Assay for Modulators of miRNAs and/orActivators of miR-21; HeLa miR-21 FLuc reporter, luciferase, 48 h; Potency, µM (series often up to 38.3 µM), without a hit: top-dose reporter change, positive = more light; 340,000 tested, under 10 active; active = well fitted rising curve with a large enough effect; inconclusive = small, poorly fitted or top-dose-only effect; inactive = no such curve, though single readings can be large or run the other way;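 note: % of control where 0% means no effect; miR-21 action dims this reporter so a rising signal means less miR-21 action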
#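 HeLa cells stably expressing CMV-driven firefly luciferase with a downstream miR-21 binding sequence, endogenously expressing miR-21, were treated with titrations (up to about 40uM final) for 48 hours at 37 degree Celsius. Luciferase luminescence was read after lysis.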
# The depositor's hits bear a star; ? = inconclusive; . = no result given; [ ] = dose if it differs, or a comment.
Rango-impB inh | Rango release inh | GLA inh pH 4.5 | miR-21 reporter | compound
2.2% | -4.7% | . | . | COC(=O)C(Cc1c[nH]c2ccccc12)NC(=O)c1ccc2nc[nH]c2c1 (centres undefined)
-3.9% | 4.4% | . | . | CC(OC(=O)CCN1C(=O)C2CC=CCC2C1=O)C(=O)Nc1cccc(Cl)c1 (centres undefined)
4.7% | 1.1% | -9.5 | -4.1% | CCOC(=O)N1CCN(c2c(NCCCN3CCCCCC3)c(=O)c2=O)CC1
3.7% | 0.0% | . | . | CCOc1ncccc1C(=O)Nc1cc(S(=O)(=O)N2CCCCC2)ccc1C
-4.8% | 26.7% | 13.8 | 3.0% | CCCOc1ccc(C(C)=O)cc1CC(C(N)=O)C(N)=O
4.2% | 6.0% | . | . | Cc1ccc(C(=O)NC(Cc2ccccc2C(F)(F)F)C(=O)O)cc1 (centres undefined)
-2.5% | 0.7% | 5.9 | -47.2% | N/C(=N\OC(=O)COc1ccccc1)c1ccncc1
1.0% | -3.1% | . | 6.6% | c1ccc(Nc2nc(NCCN3CCOCC3)nc(Nc3ccccc3)n2)cc1
-0.6% | 0.6% | 3.0 | -17.8% | C#CCSc1nnc(-c2c[nH]c3ccccc23)n1C
-2.0% | -12.4% | . | . | CCOC(=O)C1=C(COC(=O)c2ccccc2OC(F)F)NC(=O)NC1C (centres undefined)
2.7% | -3.9% | 6.1 | -5.0% | COc1ccc(C(=O)OCC(=O)Nc2cc(C)on2)c(OC)c1OC
0.5% | 0.1% | 9.8 | -0.6% | COc1ccc(N(CC(=O)NCCC2=CCCCC2)S(=O)(=O)c2ccccc2F)cc1
-3.1% | 18.0% | 7.4 | -8.9% | N#Cc1c(N)nc2c(c1-c1ccc(F)cc1)c(=O)nc1sccn12
-3.9% | 1.0% | . | -5.6% | Cc1ccc(C(C)C)c(OCC(=O)NC2CCN(C)CC2)c1
-6.4% | 28.3% | 6.9 | -6.0% | CNc1nc(-c2ccc3c(c2)CCN3C(=O)c2cccc(F)c2)cs1
? | ? | -1.6 | -16.4% | COC(=O)/C(C#N)=C/c1ccc(OC(=O)c2ccccn2)cc1
0.7% | -17.5% | -5.1 | -61.3% | COc1ccc(N=Nc2cc(C)ccc2O)cc1
-0.1% | 13.2% | 0.6 | -8.5% | C=CCOc1ccc(/C=N/NC(=O)C(C)Sc2ccccn2)cc1OCC (centres undefined)
0.3% | -0.9% | 2.8 | -18.9% | Cc1ccc(NC(=O)N2N=C(c3ccc(F)cc3)CC2c2ccc(F)cc2)cc1 (centres undefined)
-1.0% | -5.7% | -0.5 | -19.0% | COC(=O)c1ccc(NC(=S)N2CCCC2)cc1
-0.8% | 6.7% | . | -7.6% | O=C(Nc1ccccc1F)c1ccc(CN2CCc3ccccc3C2)cc1
? | ? | ? | -3.5% | CCCCCCc1cc2cc(C(=O)OCC)c(=O)oc2cc1O
5.1% | 4.9% | . | . | NC(=O)C1CCN(c2nc(-c3ccccc3-c3ccccc3)cs2)CC1
1.3% | -11.9% | . | -0.5% | O=C(NCc1cccs1)C1CCCN1C(=O)Nc1ccccc1[N+](=O)[O-] (centres undefined)
-0.8% | 4.7% | -2.0 | 7.1% | O=C(NCC1CCCC(CNC(=O)N2CCc3ccccc32)C1)N1CCc2ccccc21 (centres undefined)
-2.7% | 5.2% | 5.6 | -6.0% | CC(C)NC(=S)NN=C1CCC(c2ccccc2)CC1 (centres undefined)
5.4% | 1.4% | . | . | CC(C)C[C@@H](CN)NC(=O)c1nc[nH]c1C(=O)N[C@@H](C)C(=O)CNC[C@H](C)NC(=O)c1nc[nH]c1C(=O)N[C@@H](CC(C)C)C(=O)O
2.8% | 21.1% | 7.9 | -12.4% | Cc1nn(CCC#N)c(NC(=O)c2ccccc2)c1P(=O)(Nc1ccc(Br)cc1)N1CCOCC1 (centres undefined)
? | -28.3% | -6.6 | -5.3% | CCN(CC)S(=O)(=O)c1ccc(C)c(NC(=O)COC(=O)CNC(=O)c2ccc(C(C)(C)C)cc2)c1
-3.7% | -6.2% | . | 2.1% | CCc1ccc(NC(=O)CN(CC(=O)Nc2ccc(CC)cc2)CC(C)O)cc1 (centres undefined)

Rango-impB inh | Rango release inh | GLA inh pH 4.5 | miR-21 reporter | compound
-2.8% | -10.3% | . | . | O=C(N[C@@H]1C/C=C\C[C@@H](CC(=O)N(CCO)Cc2ccccc2)C(=O)N[C@@H](c2ccccc2)COC1=O)OCC1c2ccccc2-c2ccccc21
-2.5% | 3.8% | . | -6.3% | Cc1ccc(C)c(NC(=O)CSc2nnc(C3CCCCC3)o2)c1
1.8% | 1.0% | -0.9 | -10.3% | COCCSc1nnc(NC(=O)c2ccc(NC(=O)C(C)C)cc2)s1
0.2% | -8.2% | -6.0 | 1.1% | S=C(Nc1ccc(Cl)cc1)NC1CC2CCC(C1)N2Cc1ccccc1 (centres undefined)
1.7% | -7.9% | 0.3 | 21.5% | Cc1ccc(C(=O)CSc2cc(C)nc(SCC(=O)c3ccccc3)n2)cc1
-1.6% | 5.3% | 4.8[21.1 µM] | 10.7% | CCOC(=O)c1ccc(NC(=O)CN2C(=O)NC3(CCCCCC3)C2=O)cc1
0.0% | 19.7% | -12.6 | -12.1% | Cc1onc(COc2ccccc2O)c1Br
0.0% | 1.0% | -10.4 | -2.5% | O=C(CCc1ccccc1)Nc1ccc(N2CCOCC2)c(Cl)c1
-7.3% | -6.5% | -17.8 | -0.6% | CCCCOc1ccc(C(=O)NCC2(c3ccc(OC)cc3)CCOCC2)cc1
4.8% | 18.6% | . | -2.9% | OC(CN1CCN(c2cccc(Cl)c2)CC1)c1ccc(F)cc1 (centres undefined)
? | 0.6% | 0.6 | -5.0% | CCOC(=O)c1cnn(CCOC(=O)c2ccccc2F)c1NC(=O)c1ccccc1F
-0.5% | -24.3% | 4.7 | -33.0% | Cc1cc2oc(=O)cc(CSc3nc(N)cc(N)n3)c2cc1C
7.0% | -8.1% | . | ? | CN1CCN(C(c2ccc(Br)cc2)c2cc(Cl)c3cccnc3c2O)CC1 (centres undefined)
1.7% | -4.7% | . | -1.1% | COc1ccc(S(=O)(=O)N2CCCCCC2)cc1C(=O)NC1(C)CCS(=O)(=O)C1 (centres undefined)
2.9% | 1.0% | . | . | Cc1ccc(NC(=O)c2nc[nH]c2C(=O)NCCCCCCNC(=O)c2[nH]cnc2C(=O)Nc2ccc(C)cc2)cc1
-0.1% | 2.4% | . | -0.4% | CC(=O)Nc1cccc(C(=O)OC2CCOC2=O)c1 (centres undefined)
7.9% | -6.6% | 6.1 | -1.7% | COc1ccc(C(=O)N2CCN(C3CCN(Cc4ccccc4)CC3)CC2)cc1OC
-6.8% | 7.5% | 6.6 | 2.8% | CCN(CC)S(=O)(=O)c1ccc(Cl)nc1
-1.1% | 2.2% | . | . | CSc1ccccc1C(=O)OCC(=O)N1CCCC1=O

# Quoted from above (13 entries):
Rango-impB inh | Rango release inh | GLA inh pH 4.5 | miR-21 reporter | compound
1.7% | -7.9% | 0.3 | 21.5% | Cc1ccc(C(=O)CSc2cc(C)nc(SCC(=O)c3ccccc3)n2)cc1
-1.6% | 5.3% | 4.8[21.1 µM] | 10.7% | CCOC(=O)c1ccc(NC(=O)CN2C(=O)NC3(CCCCCC3)C2=O)cc1
0.0% | 19.7% | -12.6 | -12.1% | Cc1onc(COc2ccccc2O)c1Br
0.0% | 1.0% | -10.4 | -2.5% | O=C(CCc1ccccc1)Nc1ccc(N2CCOCC2)c(Cl)c1
-7.3% | -6.5% | -17.8 | -0.6% | CCCCOc1ccc(C(=O)NCC2(c3ccc(OC)cc3)CCOCC2)cc1
4.8% | 18.6% | . | -2.9% | OC(CN1CCN(c2cccc(Cl)c2)CC1)c1ccc(F)cc1 (centres undefined)
? | 0.6% | 0.6 | -5.0% | CCOC(=O)c1cnn(CCOC(=O)c2ccccc2F)c1NC(=O)c1ccccc1F
-0.5% | -24.3% | 4.7 | -33.0% | Cc1cc2oc(=O)cc(CSc3nc(N)cc(N)n3)c2cc1C
7.0% | -8.1% | . | ? | CN1CCN(C(c2ccc(Br)cc2)c2cc(Cl)c3cccnc3c2O)CC1 (centres undefined)
1.7% | -4.7% | . | -1.1% | COc1ccc(S(=O)(=O)N2CCCCCC2)cc1C(=O)NC1(C)CCS(=O)(=O)C1 (centres undefined)
2.9% | 1.0% | . | . | Cc1ccc(NC(=O)c2nc[nH]c2C(=O)NCCCCCCNC(=O)c2[nH]cnc2C(=O)Nc2ccc(C)cc2)cc1
-0.1% | 2.4% | . | -0.4% | CC(=O)Nc1cccc(C(=O)OC2CCOC2=O)c1 (centres undefined)
7.9% | -6.6% | 6.1 | -1.7% | COc1ccc(C(=O)N2CCN(C3CCN(Cc4ccccc4)CC3)CC2)cc1OC

# Quoted at random: two records from the list.
Rango-impB inh | Rango release inh | GLA inh pH 4.5 | miR-21 reporter | compound
0.0% | 1.0% | -10.4 | -2.5% | O=C(CCc1ccccc1)Nc1ccc(N2CCOCC2)c(Cl)c1
-1.1% | 2.2% | . | . | CSc1ccccc1C(=O)OCC(=O)N1CCCC1=O

# Some of the compounds tested; rates above refer to the full screens.
